# Hedgehog inh – Hedgehog pathway signaling inhibitors, primary screen, luminescence, Shh-LIGHT2 cells, Gli-luciferase | Shh-LIGHT2 Gli-luciferase reporter, 30 h | inhibition, % (test concentration not listed) | 22,000 compounds, 2.1% hits | AID 2313, 2010;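 active means replicate mean of 65% or more; inconclusive means mean lower but half the replicates past it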;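 further: pathway switched on by Shh-conditioned medium diluted 1 in 25 in low serum; 100 nL library stock added to about 40 µL; 0% = median of neutral wells and 100% = positive control level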
# YB-1 expression – inhibitors of YB-1 gene expression, primary screen, cell-based, fluorescence; delta delta Cp (YB-1 minus CDIP) (concentration not given with the values); U2OS, qRT-PCR YB-1 vs CDIP delta delta Cp, 16 h; stronger effect = higher value; zero = DMSO, each unit about twofold; 30,000 compounds, 0.37% hits; AID 434959, 2010;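 active means delta delta Cp rounded down to an integer at or above 3, about 3 SD of DMSO wells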;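 further: higher means less YB-1 transcript or more CDIP transcript relative to DMSO; stock transfer was 100 nL into about 100 µL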
# PD-1 reversal – activators reversing PD-1 mediated T-cell inhibition, primary screen, luminescence, primary human CD4 T cells, PD-L1 beads. CellTiter-Glo 96 h. activation, % (no concentration beside the values). 29,000 tested, under 10 active. AID 2316, 2010;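 active means replicate mean of 50% or more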;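 further: 0% = median vehicle wells and 100% = positive control; 100 nL library stock added to about 50 µL; numbers are from one replicate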
# MITF inhib – inhibitors of MITF, primary screen, MITF inhibitor project, cell-based, luminescence; TRPM1 promoter luciferase, 24 h; inhibition, % (concentration not given with the values); 37,000 compounds, 0.28% hits; AID 2240, 2010;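 active means most replicates at 85% or more, or half of them and the mean; inconclusive means half reach 85% but not the mean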;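 further: human melanocyte line stably carrying TRPM1 promoter luciferase reporter; 0% = vehicle wells and 100% = a positive control; the first replicate is given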
# * = called active by the depositor; ? = inconclusive; · = no result given. An excerpt; the hit share may differ from the screen's.
# Fields: Hedgehog inh	MITF inhib	YB-1 expression	PD-1 reversal
1) C[C@@H]1CN([C@H](C)CO)C(=O)c2cc(NC(=O)CCN3CCOCC3)ccc2O[C@H]1CN(C)C(=O)Nc1ccccc1
→ -18	-6	0.15	0.3
2) Cc1cc(Cl)c(S(=O)(=O)N2CCN(c3ccccn3)CC2)cc1OCC(N)=O
→ ·	-7	·	0.3
3) CS(=O)(=O)c1cc2cc(Cl)ccc2oc1=O
→ 32	15	0.044	-3.6
4) Cc1cc(C(=O)Nc2ccccc2C(=O)O)ccc1NC(=O)COc1cccc(C)c1C
→ ·	-4	·	-0.7
5) Cc1noc(C)c1NC(=O)N(C)C[C@H]1Oc2c(NS(C)(=O)=O)cccc2C(=O)N([C@@H](C)CO)C[C@@H]1C
→ 14	-1	-0.33	1.1
6) COc1ccc([N+](=O)[O-])cc1NC(=O)COc1ccc(C(C)(C)C)cc1Br
→ ·	89*	·	0.5
7) CS(=O)(=O)N(CC(=O)Nc1cc(C(F)(F)F)ccc1Cl)c1ccccc1
→ ·	-18	·	1.1
8) C[C@@H]1CN([C@H](C)CO)C(=O)c2cc(NC(=O)c3ccncc3)ccc2O[C@@H]1CN(C)S(=O)(=O)c1cccs1
→ -2	-25	0.024	0.1
9) C[C@@H]1CN([C@H](C)CO)C(=O)c2cccc(NC(=O)c3ccc(-c4nccs4)cc3)c2O[C@@H]1CN(C)C(=O)Nc1cccc2ccccc12
→ 41	0	-0.026	-0.7
10) Nc1nonc1C(=O)NCCNCc1ccc(F)cc1
→ ·	-24	·	2.9
11) O=[N+]([O-])c1cccc(NC(=S)NCc2cn(-c3ccccc3)nc2-c2ccccc2)c1
→ ·	76	·	-0.1
12) CC(C)(C)OC(=O)Cn1ccc(=O)[nH]c1=O
→ -1	-23	-0.25	0.4
13) COc1ccc(S(=O)(=O)NCC(=O)Nc2cccc(C)c2C)cc1OC
→ ·	-2	·	0.0
14) COc1ccc(NC(=O)Nc2cccc3c2O[C@H](CN(C)C(=O)NC2CCCCC2)[C@@H](C)CN([C@H](C)CO)C3=O)cc1
→ 25	-12	-0.2	·
15) CCOC(=O)NC(=O)CSc1nnc(C)s1
→ ·	-12	·	1.9
16) COc1ccc(OC)c(S(=O)(=O)N2CCC(C(=O)Nc3ccccc3F)CC2)c1
→ ·	-2	·	0.8
17) O=C(COc1ccc(Br)cc1)Nc1cccc(-c2nc3ncccc3o2)c1
→ ·	-46	·	-0.7
18) COc1ccc(S(=O)(=O)Nc2ccc3c(c2)C(=O)N([C@@H](C)CO)C[C@@H](C)[C@H](CN(C)C(=O)Nc2cccc4ccccc24)O3)cc1
→ -4	7	-0.42	1.3
19) CC1CC(=O)[C@]2(C)CC[C@]3(C)C(C(=O)C(O)C4[C@@]5(C)CC[C@H](O)C(C)(C(=O)O)C5CC[C@]43C)C2C1C (stereo partly drawn)
→ 82*	58	0.95	-12
20) COC(=O)COc1cccc(NC(=O)c2ccccc2F)c1
→ ·	-6	·	-0.6
21) Cc1ccc(-c2nnc3c4ccccc4c(C)nn23)cc1S(=O)(=O)NC(C)c1ccccc1 (stereo not drawn)
→ ·	-14	·	-1.0
22) C[C@@H]1CCCCO[C@H](CN(C)CC2CC2)[C@@H](C)CN([C@H](C)CO)C(=O)c2cc(NC(=O)Nc3cccc4ccccc34)ccc2O1
→ -33	-7	0.18	1.4
23) COc1ccc(-c2cc(=O)c3c(O)cc(O)cc3o2)cc1O
→ -5	-47	0.28	·
24) C[C@@H]1CCCCO[C@H](CN(C)Cc2ccc(C(F)(F)F)cc2)[C@@H](C)CN([C@H](C)CO)C(=O)c2cc(NC(=O)NC3CCCCC3)ccc2O1
→ 40	13	0.21	-5.1
25) C[C@H]1CN([C@@H](C)CO)C(=O)c2cc(NC(=O)CCCN(C)C)ccc2O[C@@H]1CN(C)Cc1ccc(Cl)c(Cl)c1
→ -8	-1	0.21	1.2
26) CC(C)NC(=O)N(C)C[C@H]1Oc2c(NC(=O)CCCCCC(=O)Nc3ccccc3N)cccc2C(=O)N([C@@H](C)CO)C[C@@H]1C
→ ·	-13	0.43	1.5
27) COc1ccc(S(=O)(=O)N(C)C[C@@H]2Oc3ccc(NC(=O)CCC(F)(F)F)cc3C(=O)N([C@H](C)CO)C[C@@H]2C)cc1
→ ·	1	0.45	0.2
28) C[C@@H]1CN([C@H](C)CO)C(=O)c2cccc(NS(C)(=O)=O)c2O[C@H]1CN(C)CC1CC1
→ -26	-12	-0.11	·
29) CC1=CCC(C(=O)O)C(C(=O)Nc2ccccc2NC(=O)c2ccc(C(F)(F)F)cc2)C1 (stereo not drawn)
→ ·	-75	·	1.6
30) CCc1ccc(OCC(=O)Nc2sc3c(c2C(=O)OC)CCC3)c(Br)c1
→ ·	13	·	0.5
31) Cn1nc(-c2ccc(NCCN3CCOCC3)c([N+](=O)[O-])c2)c2ccccc2c1=O
→ ·	-1	·	1.0
32) COc1cc2oc(-c3ccccc3)cc(=O)c2c(O)c1OC
→ 4	-36	-0.083	-0.1
33) C[C@@H]1CN([C@@H](C)CO)C(=O)Cc2cc(NC(=O)Cn3cnnn3)ccc2O[C@@H]1CN(C)CC1CCCCC1
→ -11	-13	-0.053	·
34) C/S(=N\S(=O)(=O)c1ccc(Cl)cc1)c1ccccc1 (stereo not drawn)
→ -18	6	-0.061	0.0
35) O=C(CSCc1cccc2ccccc12)Nc1ccc(C(F)(F)F)cc1
→ 20	24	-0.08	-0.1
36) COc1ccc(S(=O)(=O)N(C)C[C@@H]2Oc3ccc(NC(=O)C4CC4)cc3CC(=O)N([C@@H](C)CO)C[C@@H]2C)cc1
→ 8	-10	0.28	0.0
37) C[C@H](CO)N1C[C@H](C)[C@H](CN(C)S(=O)(=O)c2cccs2)Oc2ccc(NC(=O)NC3CCCCC3)cc2CC1=O
→ -16	1	-0.12	-0.6
38) C[C@H]1CN([C@@H](C)CO)C(=O)c2cccc(NS(=O)(=O)c3ccccc3)c2O[C@@H]1CN(C)C(=O)Nc1ccc(C(F)(F)F)cc1
→ -15	-5	1.4	-0.5
39) C[C@H]1CN([C@@H](C)CO)C(=O)c2cccc(NS(C)(=O)=O)c2O[C@H]1CN(C)Cc1ccc(Cl)c(Cl)c1
→ ?	-10	0.014	-1.8
40) CN(C)C(CC(=O)Nc1cccc(Cl)c1Cl)C(=O)O (stereo not drawn)
→ ·	2	·	-0.8
41) Cc1ccc(S(=O)(=O)N(C)C[C@H]2Oc3c(NC(=O)C4CCOCC4)cccc3C(=O)N([C@H](C)CO)C[C@H]2C)cc1
→ -5	8	-0.053	-1.0
42) C[C@@H]1CN([C@H](C)CO)C(=O)Cc2cc(NS(=O)(=O)c3ccccc3)ccc2O[C@@H]1CN(C)S(=O)(=O)c1ccc(Cl)cc1
→ 3	-9	-0.01	·
43) C[C@@H]1CN([C@H](C)CO)C(=O)Cc2cc(NC(=O)CCC(F)(F)F)ccc2O[C@@H]1CN(C)Cc1ccccc1
→ -14	-1	-0.89	-0.4
44) COC(=O)c1ccc(NC(=O)CSc2nnc(-c3cccnc3)n2-c2ccccc2)cc1
→ ·	3	·	-2.2
45) COc1ccc(S(=O)(=O)N(C)C[C@@H]2Oc3ccc(NC(=O)Nc4ccc(F)cc4)cc3CC(=O)N([C@@H](C)CO)C[C@@H]2C)cc1
→ -3	-6	-0.39	-0.4
46) COc1ccc(S(=O)(=O)N(C)C[C@@H]2Oc3ccc(NS(=O)(=O)c4cn(C)cn4)cc3C(=O)N([C@H](C)CO)C[C@H]2C)cc1
→ -10	1	0.18	1.2
47) Cc1noc(C)c1NC(=O)N(C)C[C@@H]1Oc2ccc(NC(=O)C3CCCCC3)cc2C(=O)N([C@H](C)CO)C[C@@H]1C
→ -25	-5	0.037	0.2
48) COc1ccc(NC(=O)N(C)C[C@H]2Oc3ccc(NS(C)(=O)=O)cc3CC(=O)N([C@@H](C)CO)C[C@H]2C)cc1
→ ·	3	-0.18	·
49) C[C@@H]1CN([C@@H](C)CO)C(=O)c2cccc(NC(=O)CCCCCC(=O)Nc3ccccc3N)c2O[C@H]1CN(C)S(=O)(=O)c1ccc(Cl)cc1
→ ·	-9	-0.15	-2.8
50) C[C@@H]1CN([C@@H](C)CO)C(=O)c2cccc(NC(=O)Nc3ccccc3)c2O[C@H]1CN(C)Cc1ccc2c(c1)OCO2
→ -36	42	0.21	-4.3

# (listing goes on)
# Fields: Hedgehog inh	MITF inhib	YB-1 expression	PD-1 reversal
51) Cc1ccc(S(=O)(=O)N(C)C[C@H]2OCCCC[C@@H](C)Oc3ccc(NC(=O)Cc4ccccc4)cc3C(=O)N([C@H](C)CO)C[C@@H]2C)cc1
→ -9	2	0.22	·
52) COc1ccc(NC(=O)N(C)C[C@@H]2Oc3ccc(NC(=O)CCCN(C)C)cc3CC(=O)N([C@H](C)CO)C[C@H]2C)cc1
→ -18	-9	-0.13	-1.3
53) O=C(NCCc1nc2ccccc2[nH]1)c1ccc(-c2ccccc2)cc1
→ ·	28	·	0.4
54) COc1ccc(S(=O)(=O)N(C)CC(=O)O)cc1OC
→ ·	4	·	0.4
55) C[C@@H]1CN([C@H](C)CO)C(=O)c2cccc(NC(=O)Nc3ccc(F)cc3)c2O[C@@H]1CN(C)Cc1ccc2c(c1)OCO2
→ 8	-26	0.15	1.1
56) O=P1(N2CCN(c3ccc(Cl)cc3)CC2)COc2ccccc2OC1
→ 14	26	0.4	-0.2
57) C[C@@H]1CN([C@@H](C)CO)C(=O)c2cc(NS(C)(=O)=O)ccc2O[C@H]1CN(C)S(=O)(=O)c1ccc(Cl)cc1
→ 0	-1	-0.0065	-0.3
58) Cc1cc(C)c(C(=O)c2ccccc2)cc1C(=O)c1ccccc1
→ ·	12	-0.29	-0.3
59) O=C1CC(C(=O)Nc2ccc(C(=O)O)c(O)c2)C(c2ccccc2)O1 (stereo not drawn)
→ ·	-16	·	1.7
60) C[C@@H]1CN([C@@H](C)CO)C(=O)c2cc(NC(=O)Cc3cn(C)c4ccccc34)ccc2O[C@@H]1CN(C)Cc1ccc(C(=O)Nc2ccccc2N)cc1
→ ·	0	-0.17	-3.5
61) CNC[C@H]1Oc2ccc(NC(=O)Nc3ccc(C(F)(F)F)cc3)cc2C(=O)N([C@@H](C)CO)C[C@@H]1C
→ ·	-2	-0.53	-0.5

# Screening results as filed in PubChem BioAssay.
